FGF22 binding – binders of recombinant human FGF22 by thermal shift; Q9HCT0; SYPRO orange fluorescence; percent of sucrose octasulfate shift, DMSO zero; calls only at 9.99 µM; actives 1.5% (n = 340,000);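 active = melting point raised past a set limit in the mean and every replicate; three in four hits are not shown here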
Target sequence (Q9HCT0 whole entry, looked up): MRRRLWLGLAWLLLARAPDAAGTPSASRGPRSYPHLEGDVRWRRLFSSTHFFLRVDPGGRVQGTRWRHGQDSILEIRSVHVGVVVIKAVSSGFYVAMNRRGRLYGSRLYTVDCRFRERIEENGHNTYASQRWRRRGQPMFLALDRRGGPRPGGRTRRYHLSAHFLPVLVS
Beta cell apopt – blocks beta cell apoptosis; INS-1E cytokine-induced death, ATP luminescence, 48 h; percent of positive-control rescue, neutral wells zero; protection from apoptosis, % (test concentration not listed); actives 0.8% (n = 300,000);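 active = all replicates at 75% or more, or half of them and the mean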;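 also: 0% = cytokine-treated negative control wells and 100% = positive control rescue; higher means more ATP so stronger rescue from cytokine killing; wells of about 40 µL received 100 nL stock; the first replicate is given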
UCH37 inh – blocks the human deubiquitinase UCH37 | actives 0.33% (n = 330,000) | purified proteasome/UCH37, Ub-AMC cleavage fluorescence | inhibition, % (test concentration not listed) | Q9Y5K5;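 active = mean of two replicates above 20%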;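 also: 0% = compound-free wells with enzyme and 100% = wells lacking proteasome; stock transfer was 100 nL into about 20 µL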
Target sequence (Q9Y5K5 whole entry, looked up): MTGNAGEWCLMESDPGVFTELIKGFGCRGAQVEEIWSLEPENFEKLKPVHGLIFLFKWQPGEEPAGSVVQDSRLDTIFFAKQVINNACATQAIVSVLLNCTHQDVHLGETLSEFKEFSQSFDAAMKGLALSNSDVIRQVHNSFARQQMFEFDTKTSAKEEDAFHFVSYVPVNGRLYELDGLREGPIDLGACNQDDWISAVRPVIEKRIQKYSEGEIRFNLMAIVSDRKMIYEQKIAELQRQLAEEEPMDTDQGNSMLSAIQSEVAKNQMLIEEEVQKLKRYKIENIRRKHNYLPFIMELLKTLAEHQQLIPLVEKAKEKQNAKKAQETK
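Material: human UCH37 enzyme supplied as purified proteasome complex. Measure: % inhibition of Ub-AMC cleavage fluorescence. Medium: pH 7.4 Tris-HCl (50 mM) with ovalbumin, ATP-MgCl2, DTT. Times: 30 min preincubation with enzyme, 25 min cleavage at room temperature. Detection: AMC fluorescence intensity at 355/460 nm.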
A1 inh – inhibitors of the anti-apoptotic protein A1, read as caspase activation. MEF A1-2A-BIM cells, Caspase-Glo 3/7 luminescence, 3 h; percent of clofoctol response, vehicle zero. caspase activation, % (test concentration not listed). actives 0.066% (n = 330,000). AID 2462;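 active = over half of replicate activation scores above 10%, or exactly half above 10 with the replicate mean above 10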;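 also: wells of about 30 µL received 50 nL stock; many hits fall short of the cut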
Ecoli growth – E. coli growth inhibition; AID 1053175; actives 0.21% (n = 330,000); OD600 absorbance (concentration not given with the values); Escherichia coli growth, OD600, 23 h; stronger effect = lower value;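 active = OD600 absorbance below the run mean of sample wells minus 3.6 SD, in any replicate, cut at about 0.56 in these data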;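 also: stock transfer was 300 nL into about 60 µL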
T cruzi repl – T. cruzi replication inhibition. T. cruzi beta-gal in NIH3T3, luminescence, 90 h. inhibition, % (no concentration beside the values). actives 1.4% (n = 300,000);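 active = mean inhibition across valid replicates above about 55%, limit read from the data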;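 also: signal also drops with host cell toxicity which is not excluded here; 0% = plate median of DMSO wells and 100% = zero luminescence signal; higher percent means less beta-gal luminescence so fewer parasites; stock transfer was 50 nL into about 50 µL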
MLL AF4-AF9 inh – MLL-AF4/AF9 protein interaction inhibition. AlphaScreen, biotin-AF4 peptide binding to FLAG-AF9. actives 0.47% (n = 350,000). inhibition, % at 10 µM. AID 651704. P42568;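 active = every replicate reaching a set inhibition limit, whatever the replicate mean, cut at about 25% in these data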;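 also: 0% = plate neutral control median and 100% = total signal loss; the record names both 10 and 1 µM as test concentration; the first replicate is given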
Target sequence (P42568 whole entry, looked up): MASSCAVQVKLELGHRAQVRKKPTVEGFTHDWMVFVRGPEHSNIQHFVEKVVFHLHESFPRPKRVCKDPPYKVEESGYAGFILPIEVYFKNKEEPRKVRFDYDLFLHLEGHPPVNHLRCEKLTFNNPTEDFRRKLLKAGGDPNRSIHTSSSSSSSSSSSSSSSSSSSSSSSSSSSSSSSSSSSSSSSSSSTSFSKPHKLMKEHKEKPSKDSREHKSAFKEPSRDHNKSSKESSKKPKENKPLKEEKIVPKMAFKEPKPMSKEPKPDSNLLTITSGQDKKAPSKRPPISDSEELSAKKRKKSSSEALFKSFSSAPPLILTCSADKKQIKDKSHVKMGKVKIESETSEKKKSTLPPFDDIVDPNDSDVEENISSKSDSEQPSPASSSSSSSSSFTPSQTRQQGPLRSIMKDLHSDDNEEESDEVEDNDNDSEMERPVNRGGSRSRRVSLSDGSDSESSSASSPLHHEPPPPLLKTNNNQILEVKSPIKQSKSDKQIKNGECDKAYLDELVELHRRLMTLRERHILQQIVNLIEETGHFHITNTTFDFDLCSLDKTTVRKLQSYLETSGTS
rRNA inh HTS – selective bacterial rRNA inhibition in E. coli | GFP signal change (wild-type ribosome), % (no concentration beside the values) | E. coli WT GFP vs humanized-ribosome RFP mutants, fluorescence, 24 h; stronger effect = lower value; DMSO median 0, no signal -100 | AID 720706 | actives 1.6% (n = 350,000);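 active = significant combined selectivity score with lowered wild-type GFP, culture density cut under 30%, mutant RFP and density less affected; inactive = any of these conditions unmet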; also: one replicate is shown; some compounds called inactive have numbers as strong as hits
rRNA inh HTS OD600 – further read-out of rRNA inh HTS, marked with its call; OD600 change, %; measured here: OD600 growth;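 optical density of the mix in the first replicate; 0 = DMSO median and -100 = no signal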
rRNA inh HTS RFP – second read-out of rRNA inh HTS, no call of its own (marks repeat the call); RFP signal change, %; measured here: RFP humanized mutant strains;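 first replicate; 0 = DMSO median and -100 = no signal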
Numbers without * were called inactive; i = inactive; · = not tested or not shown. Not all compounds are listed; count on the stated rates, not on these rows.

SMILES	FGF22 binding	Beta cell apopt	UCH37 inh	A1 inh	Ecoli growth	T cruzi repl	MLL AF4-AF9 inh	rRNA inh HTS	rRNA inh HTS OD600	rRNA inh HTS RFP
O=C(NC1CCCC1)C(c1cccnc1)N(C(=O)c1ccco1)c1cccc(F)c1 (centres undefined)	i	-3	2.3	-0.1	0.66	8	-1.1	3	8	-1.9
CCCOc1ccc(-c2c(C(=O)N/N=C/c3ccc(C)o3)nnn2-c2nonc2N)cc1	i	-2	·	-0.8	·	-4	-2.8	2	1	-2.5
Cc1cc(NC(=O)CCNS(=O)(=O)c2ccc3[nH]c(=O)oc3c2)ccc1Br	i	1	3.9	-0.1	0.63	-1	-11	-17	-19	0.1
Cc1ccc(C(=O)NC(=S)N2CCN(c3ccccc3F)CC2)cc1	i	-1	5.8	2.1	0.64	-8	-5.7	-4	-8	-3.8
COC(=O)[C@H](Cc1ccccc1)NC(=O)NCC1CCCO1 (some centres undefined)	·	-6	2.3	0.2	0.68	-19	·	·	·	·
COc1cc(OC)cc(C(=O)N[C@H](C(=O)Nc2nc(-c3ccc(OC)c(OC)c3)cs2)C(C)C)c1	i	4	1.0	0.4	0.71	21	-12	2	2	4.3
O=C(O)C1=NN(c2ccccc2)C(=O)CC1	i	-5	3.8	1.0	0.68	-6	-7.7	13	12	-1.0
O=C(COC(=O)c1ccccc1C(=O)c1ccc(Cl)cc1)NCCc1ccccc1	i	0	2.9	-0.2	0.7	-22	-0.9	-29*	-23*	0.5*
C[C@H](NC(=O)c1nc[nH]c1C(=O)N[C@@H](C)c1ccccc1)C(=O)OC(C)(C)C	i	-9	4.3	-0.4	·	-4	-0.6	2	-10	11
CCN1/C(=c2/s/c(=C3/C(=O)N(c4ccccc4)N=C3C)n(CC)c2=O)C=Cc2ccccc21	i	7	·	-0.3	·	-7	3.8	13	11	2.9
CC1CCCC(C)N1C(=O)c1ccc(CS(=O)(=O)c2ccccc2)cc1 (centres undefined)	i	-1	5.0	-0.1	0.73	-11	-0.2	5	9	1.1
CCC1Oc2ccccc2N(CC(=O)NCCC2=CCCCC2)C1=O (centres undefined)	·	2	2.2	0.2	0.72	-7	·	·	·	·
CCCN=C1N(CC)C[C@@H]2[C@@H]3C(=O)N(Cc4ccccc4)C(=O)[C@@H]3[C@](Cc3ccccc3)(C(=O)OC)N12	·	·	0.9	·	0.71	·	0.8	0	2	-2.9
C/C(=N/OC(=O)C1CC1)c1cc(-c2ccc(Cl)cc2)no1	i	-2	·	0.4	·	13	-0.6	5	7	-4.3
CCN(CC)S(=O)(=O)N1CCC(C(=O)NCc2ccc3c(c2)OCO3)CC1	·	0	-0.5	-0.3	0.7	2	·	·	·	·
O=C(NN1C(=O)c2cc(Br)ccc2NC1c1cc(Br)cc(Br)c1O)c1ccncc1 (centres undefined)	·	-12	2.3	0.0	0.66	9	·	·	·	·
O=C(Cn1c2ccc(F)cc2c2nc3n(c(=O)c21)CCS3)N1CCCC1	·	4	-93	0.0	0.65	-2	·	10	6	12
CC(=O)Nc1ccc(N(C(=O)c2ccco2)C(C(=O)NC2CCCC2)c2ccc(N(C)C)cc2)cc1 (centres undefined)	i	-1	-0.5	0.3	0.69	2	0.9	-5	-1	-0.3
O=C(CN1CCOCC1)NC1CC2CCC1C2 (centres undefined)	·	-4	18	-0.9	0.68	7	·	·	·	·
Cc1ccccc1NC(=O)c1sc(NC(=O)COc2ccccc2)c(C#N)c1C	·	17	-2.5	-0.2	0.7	-7	·	·	·	·
CCc1nc2ccc(C(=O)N3CCN(c4ccccc4)CC3)cc2nc1CC	i	-1	3.4	0.8	0.66	3	0.2	-31	-28	-7.4
Cc1cccc(C)c1NC(=O)CN(C)C(=O)CN1C(=O)NC(C)(C)C1=O	i	0	1.3	0.5	0.72	·	-1.3	8	10	-1.9
CCCCOc1c(Br)cc(/C=C2\N=C(C)OC2=O)cc1OCC	i	-10	-3.1	0.4	0.73	-5	-0.2	5	18	-3.9
CCOC(=O)C1=C(COC(=O)CNC(=O)c2cc(OC)c(OC)c(OC)c2)NC(=O)NC1C (centres undefined)	i	0	3.9	-0.1	0.67	-1	-8.6	4	6	-2.1
Cc1ccc(C2=NN(C(=O)C3CCCO3)C(c3ccco3)C2)cc1 (centres undefined)	i	-8	-2.2	-1.9	0.69	3	2.4	-8	-4	4.0
CN1C(=S)SC(/[N+]([O-])=C/c2c(F)cccc2Cl)C1(C)C (centres undefined)	i	0	0.0	0.7	0.69	-12	·	16	0	2.5
Cc1ccc(NC(=O)C2CCN(C(=O)c3ccco3)CC2)cc1	i	-7	4.3	0.2	0.66	8	-3.1	0	3	-0.3
O=C(CSc1ncccn1)N/N=C/c1cccc(OC2CSC2)c1	i	1	·	0.2	·	-9	1.9	6	12	5.0
Cc1nc2ccccc2c(=O)n1/N=C/c1ccc2ccccc2c1O	i	115*	·	-0.4	·	24	9.8	7	-4	9.3
O=C1N/C(=C/c2cccs2)C(=O)N1Cc1ccc(Br)cc1	i	6	0.9	1.8	0.73	-7	0.7	30	24	3.8

Filtered by structure, the compounds so far containing a furan ring, fused or not (five)
SMILES	FGF22 binding	Beta cell apopt	UCH37 inh	A1 inh	Ecoli growth	T cruzi repl	MLL AF4-AF9 inh	rRNA inh HTS	rRNA inh HTS OD600	rRNA inh HTS RFP
O=C(NC1CCCC1)C(c1cccnc1)N(C(=O)c1ccco1)c1cccc(F)c1 (centres undefined)	i	-3	2.3	-0.1	0.66	8	-1.1	3	8	-1.9
CCCOc1ccc(-c2c(C(=O)N/N=C/c3ccc(C)o3)nnn2-c2nonc2N)cc1	i	-2	·	-0.8	·	-4	-2.8	2	1	-2.5
CC(=O)Nc1ccc(N(C(=O)c2ccco2)C(C(=O)NC2CCCC2)c2ccc(N(C)C)cc2)cc1 (centres undefined)	i	-1	-0.5	0.3	0.69	2	0.9	-5	-1	-0.3
Cc1ccc(C2=NN(C(=O)C3CCCO3)C(c3ccco3)C2)cc1 (centres undefined)	i	-8	-2.2	-1.9	0.69	3	2.4	-8	-4	4.0
Cc1ccc(NC(=O)C2CCN(C(=O)c3ccco3)CC2)cc1	i	-7	4.3	0.2	0.66	8	-3.1	0	3	-0.3

Further structures follow:
SMILES	FGF22 binding	Beta cell apopt	UCH37 inh	A1 inh	Ecoli growth	T cruzi repl	MLL AF4-AF9 inh	rRNA inh HTS	rRNA inh HTS OD600	rRNA inh HTS RFP
Cn1ncc(N=Cc2ccccc2O)c1C(=O)Nc1ccccc1	·	-2	9.7	-0.3	0.75	-3	·	·	·	·
O=C(Nc1nc(-c2cccs2)cs1)c1ccc(S(=O)(=O)N2CCCC2)cc1	·	-3	-4.9	1.4	0.67	10	·	·	·	·
COc1ccc(Br)cc1C1Nc2cccc3cccc(c23)N1	i	·	·	0.4	·	4	8.1	10	8	3.7
CCC(NC(=O)CCc1ccccc1)c1ccccc1 (centres undefined)	·	2	0.2	0.2	0.66	-3	-2.0	12	4	0.4
CCc1cccc(C)c1NC(=O)CCNC(=O)c1cccc(C)c1	i	·	1.9	0.8	0.66	-7	-4.1	7	9	0.2
CCn1c(CNC(=O)c2cccc(C)c2)nc2ccccc21	i	-5	2.6	1.4	0.75	11	-1.8	2	-5	-1.5
COC(=O)c1cc(C(=O)OCC(=O)Nc2ccccc2OC(F)F)cc([N+](=O)[O-])c1	i	-3	4.3	-0.8	0.65	-14	-47	-7	-4	-12
COc1ccc2nc(NC(=O)c3ccc(NC(=O)C4CCCO4)cc3)sc2c1 (centres undefined)	i	9	-172	0.0	0.68	-21	-1.7	4	13	1.0
CCc1nnc(NC(=O)CSc2nc3[nH]c(=O)cc(O)c3s2)s1	i	-3	4.9	-1.5	0.65	·	1.8	5	16	14
N=c1c2c(-c3ccccc3)c(-c3ccccc3)n(Cc3ccco3)c2ncn1Cc1ccccc1	·	91*	-0.7	-0.9	0.67	47	·	·	·	·
COc1cc(Cl)c(C)cc1NC(=O)CSc1nnc(-c2ccccn2)n1Cc1ccco1	·	-8	2.4	-0.1	0.7	-6	·	·	·	·
CN(CC(=O)Nc1ccccc1Cl)C(=O)COC(=O)/C=C/c1cccs1	i	·	6.7	·	0.66	·	2.0	3	7	-0.9
O=C(NCc1cccs1)c1nc2c(nnn2Cc2ccc(F)cc2)c(=O)[nH]1	·	5	4.3	0.2	0.72	13	·	·	·	·
NC(=O)C1(N2CCCCC2)CCN(C(=O)c2ccc(-n3cnnn3)cc2)CC1	·	-4	-2.3	1.9	0.75	3	·	·	·	·
CC(C)(C)CC(C)(C)NC(=O)CSCC(=O)Nc1ccc2ccccc2c1	·	-8	4.5	1.5	0.68	11	·	·	·	·
CC(=O)N/C(=C\c1ccccc1)C(=O)OCC(=O)NC1CCS(=O)(=O)C1 (centres undefined)	i	-9	0.2	-0.8	0.67	·	-1.0	12	18	1.6
COC(=O)c1c(-c2cccnc2)csc1NC(=O)c1ccc2c(c1)OCO2	i	39	-16	0.3	0.68	-2	-1.2	2	4	-1.8
CCCCNC(=O)CS(=O)Cc1nc(-c2cccc(Cl)c2)oc1C (centres undefined)	i	-9	3.8	-0.2	0.77	-6	-2.0	1	0	-2.6
CCOC(=O)Nc1ccc2c(c1)N(C(=O)CCN1CCN(CCO)CC1)c1ccccc1CC2	·	-6	4.2	0.0	0.71	-14	·	·	·	·
O=c1c2ccccc2nc2c3ccccc3c(NCCO)nn12	i	·	-438	0.0	0.76	-2	-1.4	-7	-7	-4.0
CC(=O)C1=C(O)C(=O)N(Cc2cccnc2)C1c1ccc(Cl)cc1 (centres undefined)	·	-3	5.2	0.6	0.68	3	·	·	·	·
CCCN1Cc2cccc(C(=O)Nc3cc(OC)cc(OC)c3)c2C1=O	i	-1	-1.5	0.2	0.72	39	-18	11	8	11
CC(NC(=S)Nc1ccc([N+](=O)[O-])cc1)c1ccncc1 (centres undefined)	i	7	9.1	-0.1	0.6	-1	5.1	-27*	-10*	6.7*
CC(Oc1ccc(Cl)cc1)C(=O)OCC(=O)Nc1ncc(Cl)cc1Cl (centres undefined)	·	-1	4.6	0.2	0.73	-16	·	·	·	·
CC1CCCCC1NC(=O)CCCc1nc2ccccc2c(=O)[nH]1 (centres undefined)	i	·	0.5	·	0.72	-8	3.1	4	5	-7.5
O=C(c1cccs1)N1CCN(Cc2ccc3c(c2)OCO3)CC1	·	-1	5.8	-0.5	·	-14	·	·	·	·
O=C(OCc1cccc([N+](=O)[O-])c1)c1ccc[nH]c1=O	i	-2	1.9	-0.3	0.69	-2	0.9	6	10	2.9
Cc1ccc(-c2noc(CSc3nnnn3-c3ccccc3)n2)cc1	·	-7	0.0	0.4	0.68	2	·	·	·	·

Shown with values under each structure: part of the list above
Below each compound: FGF22 binding | Beta cell apopt | UCH37 inh | A1 inh | Ecoli growth | T cruzi repl | MLL AF4-AF9 inh | rRNA inh HTS | rRNA inh HTS OD600 | rRNA inh HTS RFP
COC(=O)[C@H](Cc1ccccc1)NC(=O)NCC1CCCO1 (some centres undefined)
  · | -6 | 2.3 | 0.2 | 0.68 | -19 | · | · | · | ·
COc1cc(OC)cc(C(=O)N[C@H](C(=O)Nc2nc(-c3ccc(OC)c(OC)c3)cs2)C(C)C)c1
  i | 4 | 1.0 | 0.4 | 0.71 | 21 | -12 | 2 | 2 | 4.3
O=C(O)C1=NN(c2ccccc2)C(=O)CC1
  i | -5 | 3.8 | 1.0 | 0.68 | -6 | -7.7 | 13 | 12 | -1.0

Source: PubChem
